# Screening data (PubChem)
# PINK1 expr mod: modulators of PINK1 expression; PINK1 immunofluorescence, high-content cytometry, 24 h; Potency, µM (titrated, usually from 76.6 µM), without a hit: top-dose activation (PINK1 increase), usual class: activators; 410,000 compounds, 0.2% hits; active = well fitted activation curve with a large enough effect; inconclusive = small, poorly fitted or top-dose-only effect; inactive = flat fitted curve, though single readings scatter; cell line not stated here;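 also: % of control where 0% means no effect; nearly all actives have a fitted effect of over 65% in size; a mitochondrial uncoupler was the plate control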
#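 Cells are seeded, rested 12 hours, then given compound at five concentrations or DMSO for 24 hours. After fixation, blocking and antibody staining, PINK1 amount and mitochondrial localization are scored; CCCP serves as control.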
# Starred values were filed as active, the others as inactive; ? = inconclusive. Potency is read from the fitted curve at half-maximal effect. Some of the compounds tested; the hit share may differ from the screen's.
smiles,PINK1 expr mod
O=[N+]([O-])c1ccc(O/N=[N+](\[O-])N2CCCC2)c([N+](=O)[O-])c1,0.0%
COc1ccc(C(=O)/C=C/c2cn(CC(O)CN(CC(C)C)CC(C)C)c3ccccc23)cc1OC (stereo not given),2.1%
Cc1cnc(SCc2ccccn2)nc1C1CCCN(C(=O)c2cccc(-c3cccc(F)c3)c2)C1 (stereo not given),2.3%
Cc1c(C(=O)NCc2ccc(F)cc2)sc2ncnc(NCC3CCCO3)c12 (stereo not given),1.1%
O=C(O)c1ccc(-c2noc(-c3ccccc3F)n2)cc1,-1.2%
CCOC(=O)N1CCN(/[N+]([O-])=N/OCOC)CC1,0.0%
Cc1cnc(-n2ncc(C(=O)NCc3ccncc3)c2C(C)C)nc1-c1ccc(F)cc1,-1.0%
Cc1cc(C(=O)NCc2nnc3n2CCN(Cc2ccc(F)cc2F)CC3)c(C)o1,-0.2%
COc1cccc(CN2CCC(n3cc(C(=O)NC4CCCC4)nn3)CC2)c1O,0.0%
COc1ccccc1CCC(=O)N1CCOc2c(cc(-c3cnc4ccccc4c3)cc2OC)C1,0.8%
COc1cccc(CNC(=O)c2c(OC)cc(=O)n3c2CCN(C(=O)c2ccc(C)cc2C)CC3)c1,-0.5%
CCn1c(-c2cccnc2)nc2cc(NC(=O)COC)cc(C(=O)N3CC[C@@H]4CCCC[C@H]4C3)c21,3.2%
Cc1ncc2c(c1CNS(=O)(=O)N(C)C)CCN(C(=O)/C=C/c1cccc(F)c1)C2,-0.4%
Cc1ccccc1CN1C(=O)[C@@H]2Cc3c([nH]c4ccccc34)C(C)(C)N2C1=O,14%
OCC#CCSc1nnc(-c2cccc3ccccc23)o1,-0.4%
CCn1cnc2c(Nc3cc(F)cc(F)c3)nc(C#N)nc21,0.6%

# The closing seven compounds of the part before lead into the next:
smiles,PINK1 expr mod
COc1ccccc1CCC(=O)N1CCOc2c(cc(-c3cnc4ccccc4c3)cc2OC)C1,0.8%
COc1cccc(CNC(=O)c2c(OC)cc(=O)n3c2CCN(C(=O)c2ccc(C)cc2C)CC3)c1,-0.5%
CCn1c(-c2cccnc2)nc2cc(NC(=O)COC)cc(C(=O)N3CC[C@@H]4CCCC[C@H]4C3)c21,3.2%
Cc1ncc2c(c1CNS(=O)(=O)N(C)C)CCN(C(=O)/C=C/c1cccc(F)c1)C2,-0.4%
Cc1ccccc1CN1C(=O)[C@@H]2Cc3c([nH]c4ccccc34)C(C)(C)N2C1=O,14%
OCC#CCSc1nnc(-c2cccc3ccccc23)o1,-0.4%
CCn1cnc2c(Nc3cc(F)cc(F)c3)nc(C#N)nc21,0.6%
CCOC(=O)N1CCN(Cc2ccc3c(c2)CN(C(=O)c2ccc(C#CC(C)(C)O)o2)CCO3)CC1,1.3%
COC(=O)CC1C(=O)NCCN1C(=O)CN1Cc2ccccc2OC(c2ccccc2)C1 (stereo not given),2.2%
O=S(=O)(c1ccccc1)N1CCN(c2nc(-c3ccc(F)cc3)nc3cc(Cl)ccc23)CC1,-1.6%
O=C(COC(=O)C12CC3CC(CC(O)(C3)C1)C2)NCc1ccco1,0.0%
CCO[C@H]1[C@H](NC(=O)c2cccnc2)c2ccccc2C12CCN(C(=O)c1cc(C)n(C)n1)CC2,0.5%
O=C(NCc1ccncc1)c1cnn(-c2nccc(-c3cccs3)n2)c1C1CC1,0.0%
CCN(CC)/[N+]([O-])=N/Oc1ccc([N+](=O)[O-])cc1[N+](=O)[O-],-1.4%
Cc1ncoc1C(=O)N1CCOc2ccc(CN3CCN(c4ccccn4)CC3)cc2C1,1.2%
COc1ccc(S(=O)(=O)NCc2nc(N3CCCC3)c3cccc(C)c3n2)cc1OC,0.0%
COc1cc2nc(N3CCCC(O)C3)c(CNCc3ccccc3C(F)(F)F)cc2c(OC)c1OC (stereo not given),0.3%
Cc1ccsc1C(=O)N(Cc1cc2cc3c(cc2nc1N1CCOCC1)CCC3)CC1CCCO1 (stereo not given),0.5%
COc1cccc(-n2c(SC)nnc2C2CCN(Cc3nc4ccccc4s3)CC2)c1,1.2%
OC1(c2cccnc2)CCN(Cc2ccc3c(c2)CN(Cc2cc4ccccc4s2)CCO3)CC1,-0.6%
Cc1cc(=O)c(C(=O)N(C)CCc2ccccn2)c2n1-c1ccccc1SC(c1ccsc1)C2 (stereo not given),-0.4%
COC(=O)c1c(OCC2CCCN(C)C2)cc(=O)n2c1CCN(Cc1ccc(OC)c(O)c1)CC2 (stereo not given),-0.3%
COc1ccccc1CCc1nc2ccccc2n1C1CCN(C(=O)c2cn3ccsc3n2)CC1,0.0%
CCCS(=O)(=O)NCc1c(C)ncc2c1CCN(C(=O)c1cccc(Cl)c1F)C2,-0.2%
Cc1c(C(=O)NCCN2CCOCC2)cnn1-c1nccc(-c2cc3ccccc3o2)n1,-0.1%
COc1cccc(OC)c1CN1CCC2(CCC(CNC(=O)c3ccn(C)n3)O2)CC1 (stereo not given),0.1%
Cc1cnc(-n2ncc(C(=O)NCc3ccncc3)c2-c2cccs2)nc1-c1ccc(F)cc1,0.2%
CN1CCCCCC1C(=O)NCCN1Cc2ccccc2OC(c2ccsc2)C1 (stereo not given),-0.4%
NC(=O)c1ccc(-c2noc(-c3ccccc3F)n2)cc1,-1.3%
CN(CCO)C(=O)c1cn(C2CCN(Cc3c(F)cccc3Cl)CC2)nn1,0.9%
CC(C)CN1CCN(C(=O)COC(=O)c2ccc(S(C)(=O)=O)c([N+](=O)[O-])c2)CC1,1.7%
Cc1ccc(C(=O)N(Cc2cc3ccc(F)cc3nc2N2CCC(O)CC2)CC2CCCO2)cc1 (stereo not given),-0.3%
CC(C)c1c(C(=O)NCC2(N3CCOCC3)CCCC2)cnn1-c1nccc(-c2cccs2)n1,-0.4%
CCC1C(=O)NCCN1Cc1ccc2c(c1)CN(Cc1ccc(OC)cc1OC)CCO2 (stereo not given),1.0%
O=C(C1CCCCC1)N1CCOc2ccc(CN3CCN(Cc4ccccn4)CC3)cc2C1,0.8%
NC(=O)C1CCN(c2nc(-c3ccc(F)cc3)cs2)CC1,2.9%
CCN(CC)C1CCN(C(=O)c2cnn(-c3nccc(-c4ccco4)n3)c2C(C)C)C1 (stereo not given),0.2%
O=[N+]([O-])c1ccc(O/N=[N+](\[O-])N2CCN(c3ccccc3)CC2)c([N+](=O)[O-])c1,1.7%
COc1cc(=O)n2c(c1C(=O)NCc1ccc3c(c1)OCO3)CCN(C(=O)c1cccc(F)c1)CC2,-0.8%
O=c1[nH]c(-c2ccc(-c3cccc(Cl)c3)o2)nc2ccccc12,12%
CCOC(=O)N1CCC(N2CCOc3ccc(CN4CCC(O)(c5cccnc5)CC4)cc3C2)CC1,0.4%
CC(C)c1c(C(=O)NCC(C)(C)N2CCOCC2)cnn1-c1nccc(-c2cccs2)n1,-1.0%
Cc1c(C(=O)NCC2COCCO2)cnn1-c1ncc2c(n1)-c1ccccc1CC2 (stereo not given),-0.6%
NC(=O)[C@@H]1CCCN1C(=O)CCN1Cc2ccccc2OC(c2ccccc2F)C1 (stereo not given in full),0.1%
CN(C)c1cccc(C(=O)NCC2Cc3cccc(-c4cncnc4)c3O2)c1 (stereo not given),-0.1%
Oc1ccc(-c2cnccn2)cc1CN1CCN(C2CCCCC2)CC1,0.1%
CCn1c(-c2cccc(OC)c2)nc2cc(NC(C)=O)cc(C(=O)N3CCCC(C(C)=O)C3)c21 (stereo not given),0.1%
O=C(CC1(c2cccc(F)c2)CC(=O)N(Cc2cccnc2)C1=O)N1CCCCCCC1 (stereo not given),2.1%
COc1ccc(-c2csc3ncnc(Sc4nnnn4C)c23)cc1,0.6%
COc1ccc(CN2CCOc3ccc(CN4CCC(O)(c5cccnc5)CC4)cc3C2)cc1OC,-0.5%
COc1ccccc1-c1ccnc(-n2ncc(C(=O)NCc3cccnc3)c2C)n1,0.1%
CCC1CN(CCC(=O)NC2CCOC(C)(C)C2)Cc2cc(OC)ccc2O1 (stereo not given),-0.6%
CC(NC(=O)C1CCOCC1)c1nnc2n1CCN(Cc1cc3c(cc1Cl)OCO3)CC2 (stereo not given),0.5%
Cc1occc1C(=O)NCCN1Cc2ccccc2OC(c2ccccc2F)C1 (stereo not given),-0.2%
Cc1noc(C)c1CCC(=O)N1CCOc2ccc(CN3CCN(c4ccccn4)CC3)cc2C1,0.0%
CCOC(=O)c1ccc(-c2ccc3ncnc(N(C)Cc4sccc4C)c3c2)o1,2.9%
Cc1cccc(CNc2ncnc3ccc(-c4ccccc4Cl)cc23)c1,?
COc1ccc(C2=Nn3c(nnc3-c3ccccc3Cl)SC2)cc1OCC1CC1,18%
O=C(NCC1CCC2(CCN(Cc3ccc4ncccc4c3)CC2)O1)C1CCCO1 (stereo not given),-0.1%
c1cc2c(cc1CNc1ccc(N3CCOCC3)cc1)OCO2,0.9%
Cc1cc(C)nc(S[C@@H]2C[C@@H](C(=O)N3CCCN(C)CC3)N(Cc3cc(F)ccc3F)C2)n1,2.1%
COc1ccc2cc(CNCc3ccccc3Cl)c(N3CCCC(CO)C3)nc2c1 (stereo not given),-0.2%
Cc1ccccc1C1(CC(=O)N2CCCC2c2nccs2)CC(=O)N(C2CCCC2)C1=O (stereo not given),0.5%

# Remaining list, next part
smiles,PINK1 expr mod
CN1CCN(C(=O)c2cccc(-c3cc(O)c4ncccc4c3)c2)CC1,-0.8%
CN(Cc1cnc2ccccn12)C1CCN(c2cccc(NC(=O)c3cccnc3)c2)CC1,-1.1%
COc1ccc(OC)c(-c2cc(Cl)c3c(c2)CC(CNC(=O)C(C)N2CCOCC2)O3)c1 (stereo not given),0.8%
CCOC(=O)C1CCCN(C(=O)c2cnn(-c3ncc4c(n3)-c3ccccc3CCC4)c2C2CC2)C1 (stereo not given),0.7%
Cc1ncc2c(c1CNS(=O)(=O)N(C)C)CCN(C(=O)c1c(F)cccc1F)C2,-0.7%
COc1ccccc1C(=O)N(Cc1cc2cc3c(cc2nc1N(C)C)OCO3)CC1CCCO1 (stereo not given),2.0%
Cc1ccc(C)c(CN2CCc3nnc(CNC(=O)c4cc(C)oc4C)n3CC2)c1,0.7%
Cn1c(-c2ccncc2)nc2cc(C(=O)N[C@H]3CCCCNC3=O)cc(NC(=O)C3CCC3)c21,0.4%
O=C(O)c1ccc(-c2noc(-c3ccc(F)cc3)n2)cc1,0.1%
Cc1cc(CNC(=O)c2cnn(-c3ncc4c(n3)-c3ccccc3CCC4)c2C2CC2)on1,-0.4%
Cc1cc(C(=O)Nc2cccc(-c3nc(CNC(=O)c4cc5ccccc5[nH]4)c(C)o3)c2)c(C)o1,1.2%
Cc1nc(CC(=O)NCC2Cc3cc(F)cc(-c4ccc(F)c(C)c4)c3O2)cs1 (stereo not given),-0.5%
O=[N+]([O-])c1ccc(O/N=[N+](\[O-])N2CCN(c3ncccn3)CC2)c([N+](=O)[O-])c1,-0.4%
CN(C)c1ccc(C(=O)Oc2cc(O/N=[N+](\[O-])N(C)C)c([N+](=O)[O-])cc2[N+](=O)[O-])cc1,-1.2%
CSc1nnc(CNC(=O)/C=C/c2ccccc2Cl)n1-c1ccc(F)cc1,0.4%
O=C(NCCCN1CCOCC1)c1cnn(-c2ncc3c(n2)-c2ccccc2CC3)c1C1CC1,0.0%
COc1cc(=O)n2c(c1C(=O)N(C)Cc1nonc1C)CCN(C(=O)c1cc(C)ccc1C)CC2,0.5%
Clc1cccc(-c2ccc3ncnc(NCc4cccs4)c3c2)c1,?
COc1ccc2c(c1)OC(C)CN(CC(=O)NCc1cn[nH]c1-c1ccc(F)cc1)C2 (stereo not given),0.2%
CC(C)c1c(C(=O)NCCN2CCOCC2)cnn1-c1nccc(-c2ccco2)n1,-0.8%
CCC1(C2CCN(Cc3ccc(C)s3)CC2)NC(=O)N(CC2COc3ccccc3O2)C1=O (stereo not given),-0.6%
COc1ccc(OC)c(-c2ccnc(-n3ncc(C(=O)N(C)CCO)c3C3CC3)n2)c1,-0.4%
COCC(=O)Nc1cc(C(=O)N[C@H]2CCCCNC2=O)c2c(c1)nc(-c1ccncc1)n2C,0.1%
COc1ccc(/C=C/C(=O)N2CCc3c(cnc(C)c3CNC(=O)c3ccsc3)C2)cc1OC,-0.8%
COC(=O)[C@@H]1CCCN1C(=O)c1c(OC)cc(=O)n2c1CCN(Cc1ccc(C)o1)CC2,-0.5%
CCSc1nnc(C(C)NS(=O)(=O)c2cccc(Cl)c2C)n1C (stereo not given),0.6%
Cc1nc(CN2CCN(C(=O)CC3(c4ccccc4Cl)CC(=O)N(C)C3=O)CC2)cs1 (stereo not given),-0.2%
COc1ccc2c(c1)-c1nc(-n3ncc(C(=O)NCC4CCCN(C)C4)c3C3CC3)ncc1CC2 (stereo not given),-1.1%
O=C(c1cccc(Cl)c1)N1CCCC(Cn2cc(C(=O)N3CCCC3)nn2)C1 (stereo not given),-1.0%
COc1ccc(C(C)N(C)Cc2nc(N3CCN(C(=O)c4ccco4)CC3)c3ccccc3n2)cc1 (stereo not given),1.5%
COc1ccc(/C=C/C(=O)N2CCc3c(cnc(C)c3CNS(=O)(=O)c3cccs3)C2)cc1,0.2%
C#Cc1cccc(C(=O)NCc2nc(-c3cccc(NC(=O)c4ccccn4)c3)oc2C)c1,1.2%
CS(=O)(=O)c1ccc(C(=O)OCC(=O)N2CCN(CCC3CCCCC3)CC2)cc1[N+](=O)[O-],-1.4%
NC(=O)c1ccccc1Nc1nc(NCCO)nc(N2CCCC2)n1,1.1%
